# Biofilm kill mix – clotrimazole potentiators killing C. albicans biofilm, primary screen, 4-compound mixtures | C. albicans biofilm persisters + clotrimazole, fluorescence viability; primary screen in compound mixtures of four per well | inhibition, % at 7.6 µM | 0.02% of 120,000 active | AID 1242, 2008;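 active means inhibition above 30.3% in the primary screen of four-compound pools, then above 30% when the compound was retested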;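 further: compounds exposed to preformed 24 h biofilms for 48 h; the number belongs to the whole pool; some results filed as inactive read as strong as hits; inactives centre near 12; 0% = biofilm with clotrimazole alone and 100% = kill control; retested singly at about 60 µM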
#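 Probe or stimulus – Clotrimazole 50 µg/mL co-treatment · System – C. albicans biofilms · Schedule – 24 h biofilm formation, then 48 h compound exposure, 37 °C · Evaluation – percent inhibition of biofilm viability · Technique – 2-h Alamar Blue fluorescence, 535/590 nm excitation/emission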
# The depositor's hits bear a star. This is a subset; count on the stated rates, not on these rows.
SMILES,Biofilm kill mix
OC(COc1ccccc1CNCc1cccnc1)CN1CCc2ccccc2C1 (stereo unspecified),20
CCOC(=O)c1ccc(NC(=S)N2CCC(O)CC2)cc1,11
FC(F)(F)c1ccc(C2[C@H]3CN(CC4CCCCC4)[C@H](c4ccccc4)C34CC2(c2cccnc2)C4)cc1 (stereo partly specified),19
CCCCN(C)C(=O)Cc1c(OC)ccc2cc(Br)ccc12,7
COC(=O)/C(=C/N(C)C)C(=O)N1CCN(c2ccc(Cl)c(Cl)c2)CC1,10
COc1ccc(CNS(=O)(=O)NCc2ccc(C)cc2)cc1,13
COc1nc(OC)nc(Oc2ccc(Cl)cc2[N+](=O)[O-])n1,-4
Cc1cc(CNC(=O)Cc2ccccc2)c2ccccc2n1,17
CSc1ncc(CN2CCCC(C(=O)c3ccc(C(C)(C)C)cc3)C2)cn1 (stereo unspecified),16
C=CCn1c(SCC(=O)NC2CCCc3ccccc32)nnc1-c1ccncc1 (stereo unspecified),12
O=C(c1ccc2c(c1)OCO2)N1CCN(c2ccccn2)CC1,0
O=C(COc1ccccc1F)NNC(=O)c1ccc(N2CCCCC2)c([N+](=O)[O-])c1,6
O=C(CN(Cc1cccs1)C(=O)CSc1nnc(COc2ccccc2)o1)NC1CCCCC1,14
COc1ccc(-c2ncc(CN3CCC(CO)(Cc4cccc(OC)c4)CC3)cn2)cc1,9
CCOC(=O)c1ccc(N2C(=O)c3n[nH]c(C)c3C2c2ccc(OC)cc2OC)cc1 (stereo unspecified),13
CCc1cccc(CC)c1NC(=O)COC(=O)CC1c2ccccc2CCN1S(=O)(=O)c1ccccc1 (stereo unspecified),19
Cc1cc2ncc(C(N)=O)cn2n1,6
CS(=O)(=O)N1CCN(c2ccnc3cc(Cl)ccc23)CC1,12
COc1ccc(OC2C(=O)N(Cc3ccc(F)cc3)C2c2cc(OC)c(OC)c(OC)c2)cc1 (stereo unspecified),14
Cc1cc(NCCN2CCOCC2)c2ccc3ccccc3c2n1,4
CNc1ccc(Cl)cc1C(N)=O,16
CS(=O)(=O)/C(C#N)=C/c1c(-c2ccccc2)nc2n1CCS2,27
CC(=O)c1cnc(-c2ccccc2)s1,-5
COc1ccc(-c2csc(NC(=O)CSc3ccc(Br)cc3)n2)c(OC)c1,18
CCOC(=O)c1ccc(N2CCN(c3ccccc3F)CC2)c(NC(=O)Nc2cccc(OC)c2)c1,20
COC(=O)C(CCSC)NC(=O)c1cc2c(n(-c3ccccc3)c1=O)CC(C)(C)CC2=O (stereo unspecified),13
COc1ccccc1-n1c(SCC(=O)Nc2cc(C)on2)nc2c(c1=O)SCC2,18
COc1cccc(CN2CCN(CCc3ccccc3)C(CCO)C2)c1OC (stereo unspecified),9
Cc1ccc(C(=O)N/C(=C\c2cccs2)C(=O)NCCc2ccccn2)cc1C,11
O=C(COC(=O)c1ccc(Cl)cc1O)Nc1cccnc1Cl,13
CC/C(=N\O)c1c(O)c2c(n(-c3ccccc3)c1=O)CCCC2,18
Fc1cccc(/C=N/N=C/c2cccc(F)c2)c1,16
Cc1cc(C)c(S(=O)(=O)Nc2ccc3[nH]c(=O)[nH]c3c2)c(C)c1,10
O=C(O/N=C(\c1ccccc1)c1ccccn1)c1cccc2ccccc12,19
Cc1cc(SCC(=O)OCC(=O)c2c(N)n(C)c(=O)n(C)c2=O)c(C)cc1Br,8
Cc1ccccc1NC(=S)NC1(C)CCS(=O)(=O)C1 (stereo unspecified),13
Cc1cc(NC(=O)CN2C(=O)NC(C)(CCc3ccccc3)C2=O)no1 (stereo unspecified),-2
CC(=O)NC(CCCCNC(=S)NC1CCCCC1)C(=O)O (stereo unspecified),9
CC1CCc2cc(F)ccc2N1C(=O)CSc1nnc2c(n1)[nH]c1ccccc12 (stereo unspecified),15
CCOc1ccc(/C=N/NC(=O)c2[nH]ncc2Br)c(O)c1,6
CC(=O)c1ccc(NS(=O)(=O)c2ccc(N/C=C/C(=O)c3ccc(F)cc3)cc2)cc1,8
O=C(O)c1ccc(/C=N/NC(=O)c2cc(-c3ccc4c5c(cccc35)CC4)n[nH]2)cc1,4
CCOC(=O)c1cnn(Cc2ccc(C)cc2)c1N,20
CC(C)(C)C(O)(CC#CCN1CCCC1)c1ccccc1 (stereo unspecified),24
Cn1c(N)c(C(=O)CSc2nnnn2-c2ccccc2)c(=O)n(C)c1=O,15
Cc1cc(C(=O)COC(=O)c2cccnc2Cl)c(C)n1-c1c(C)n(C)n(-c2ccccc2)c1=O,-4
CC(C(=O)N1CCOCC1)n1cc([N+](=O)[O-])cn1 (stereo unspecified),-8
Fc1ccc(OCCn2cnc(Cl)c2Cl)cc1,10
C=CCSc1nnc2c(n1)OC(C)=Nc1ccc(Br)cc1-2,9
Cc1ccc(-c2nn(C)c(=O)c3ccccc23)cc1CNC(=O)NC1CCCCC1,12
CCOc1ccc(NC(=S)NC(=O)/C=C/c2ccc(Br)cc2)c([N+](=O)[O-])c1,15
Cc1ccc2sc(N(CCCN(C)C)C(=O)CN3C(=O)c4ccccc4C3=O)nc2c1C,12
Fc1ccc(N2CCN(c3nc(CN4CCOCC4)nc4scc(-c5ccccc5)c34)CC2)cc1,6
COc1ccc(/C(C)=N/NC(=O)CNC(=O)c2cccs2)cc1,6
Cc1ccc(SC(C)C(=O)NCc2ccncc2)cc1 (stereo unspecified),6
COc1cccc(C(=O)c2c(C)c(CCC#N)n3ccccc23)c1,9
O=C(O)c1ccc(/C=N/NC(=O)c2ccc(F)cc2)cc1,15
CCCCN(CC)C(=O)c1ccc(-c2ccccc2)cc1,-1
CCOC(=O)c1cc(-c2ccccc2)n(CC(=O)NC(C)(C)C)c1C,14
Cn1c(=O)c2cc3c(nc2n(C)c1=O)CC(c1ccccc1)CC3=O (stereo unspecified),16

# Carrying on.
SMILES,Biofilm kill mix
O=C(NCCc1c[nH]c2ccccc12)c1ccc([N+](=O)[O-])cc1,-8
Cc1ccc(CC(=O)NCc2cccnc2)cc1,4
O=C(O)/C=C/C(=O)Nc1cc(F)ccc1F,24
Cc1cc(NC(=O)CSc2nc3c(c(=O)n2Cc2ccccc2)SC(C)C3)no1 (stereo unspecified),24
CC(NC(=O)/C(C#N)=C1\N=C(NC(=O)c2cccs2)c2ccccc21)c1ccccc1 (stereo unspecified),11
CCNC(=S)N/N=C/c1cc(C)ccc1C,18
COc1ccc(/C=C2/N=C3CCCCCN3C2=O)cc1OC,8
O=C(N/C(=C\c1ccccc1)C(=O)N1CCCCCC1)c1ccccc1,8
CC(C)CCc1noc(CN2CCC(C(=O)N3CCOCC3)CC2)n1,22
O=C(Nc1ccc(C(=O)O)cc1)/C(=C\c1ccc2c(c1)OCO2)NC(=O)c1ccc(Br)cc1,20
COc1cc(/C=N/N=C2/NC(=O)C(Cc3ccc(F)cc3)S2)ccc1O (stereo unspecified),17
COc1cc(OC)cc(C(=O)NCc2ccc3[nH]c(C)cc3c2)c1,13
Cc1nnsc1C(=O)N(Cc1ccccc1)C(C)C,27
CCCCNC(=O)N(CC)c1c(N)n(Cc2ccccc2)c(=O)[nH]c1=O,9
CN(Cc1cnn(C)c1)Cc1nc(COc2ccccc2)no1,17
CN(C)S(=O)(=O)c1ccc(N2CCCC2)c(C(=O)Nc2nc3ccc(F)cc3s2)c1,16
COc1ccc(NC(=O)CN(C)C2CCCCC2)c([N+](=O)[O-])c1,8
Cc1cc(C)c(C)c(S(=O)(=O)NC2CCN(Cc3ccccc3)CC2)c1C,5
CCCNC(=O)c1ccccc1NC(=O)c1ccccc1N(C)S(C)(=O)=O,6
CCNC(=O)OCc1cn(-c2ccccc2)nn1,-6
Cc1ccc(S(=O)(=O)CC(=O)c2ccc([N+](=O)[O-])cc2)cc1,18
Cc1cccc(N2CCN(C(=O)c3cccc(S(=O)(=O)N4CCc5ccccc5C4)c3)CC2C)c1 (stereo unspecified),8
Cc1ccc(/C=C2\SC(=S)N(CCC(=O)NNC(=O)c3cccnc3)C2=O)cc1,14
CCOC(=O)c1c(NC(=O)CN2C(=O)NC(C)(c3ccccc3)C2=O)sc(C)c1C (stereo unspecified),17
O=C(CCC1CCCN(C(=O)CCN2CCCCC2=O)C1)NCc1ccccc1F (stereo unspecified),11
O=C(c1c[nH]c(C(=O)C(Cl)(Cl)Cl)c1)c1ccc(F)cc1Cl,-1
Cc1cc(NC(=O)CSc2cc(Cl)ccc2Cl)n(-c2ccccc2)n1,5
Cc1ccc(C(=O)Oc2ccc(/C=N/NC(N)=O)cc2)cc1,12
CCN1CN(Cc2ccccc2)CNC1=S,18
O=[N+]([O-])c1cccc(-c2ccc(C(=S)N3CCN(c4ccccc4)CC3)o2)c1,26
CCOC(=O)N1CCC(N2CCN(Cc3ccccc3)C(CCO)C2)CC1 (stereo unspecified),12
COc1ccc(CN(C)C(=S)Nc2ccc(Cl)cc2Cl)cc1,20
Cc1ccc(CNC(=O)c2ccc3c(=O)n4c(-c5ccc(C)cc5)csc4nc3c2)cc1,13
O=C(O)c1ccccc1N/N=C/C1=C(N2CCOCC2)C(=C\c2ccccc2)/CC1,12
O=C(Nc1nnc(COc2ccc(Cl)cc2)s1)c1ccco1,23
O=C(c1ccco1)N1CCN(Cc2nc3cc(Cl)ccc3c(=O)[nH]2)CC1,6
CN=C(NC#N)NCCSCc1nc[nH]c1C,15
Cc1sc(NC(=O)CN(CCc2ccccc2)C(=O)C2CC2)c(C(N)=O)c1C,5
Cc1ccc(/C=C2\SC(=S)N(CCC(=O)NNS(=O)(=O)c3ccc(C)cc3)C2=O)cc1,2
CCn1c2ccccc2c2cc(NC(=O)COC(=O)c3cc(S(N)(=O)=O)c(Cl)cc3Cl)ccc21,21
N=c1ncn(Cc2ccccc2)c2nc(SCCOc3ccccc3)[nH]c12,21
COc1ccc(NC(=O)COC(=O)c2ccc(S(=O)(=O)N(C)c3ccccc3OC)cc2)c(OC)c1,1
O=C(Nc1ccc(F)cc1)C(c1ccccc1)N1CCN(S(=O)(=O)c2ccc3ccccc3c2)CC1 (stereo unspecified),-6
CC(=O)Nc1ccc(SC[C@H](Cc2ccccc2)N2CCN(CC(C)C)CCC2=O)cc1,12
O=C(CNCc1ccccc1Cl)Nc1ccc2c(c1)OCCO2,10
O=C(CCN1C(=O)C2C3CCC(C3)C2C1=O)OCC(=O)c1cccc([N+](=O)[O-])c1 (stereo unspecified),16
Cc1ccc(C)c(NS(=O)(=O)c2ccc(NC(=O)CSc3ccc(Cl)cc3)cc2)c1,3
CN(C(=O)c1cc(-n2cnnc2)ccc1Cl)c1ccccc1,17
CC(C)(C)C(O)CN1CCCC1 (stereo unspecified),17
CC(=O)c1ccc(O)c(CSc2nncn2C)c1,6
CC(O)CNc1ccc([N+](=O)[O-])cc1S(=O)(=O)N1CCOCC1 (stereo unspecified),-1
On1c2c(c3c4nonc4ccc31)CCCC2,13
CC1=CC(=C(C#N)C#N)C=C(C)N1CCN1CCNCC1,13
NC(=S)N=Nc1c(O)[nH]c2ccccc12,21
O=C1c2ccccc2NC(c2ccccc2Cl)N1N=C1CCCCCC1 (stereo unspecified),12
CC(=O)Nc1cc(Br)ccc1O,11
Clc1ccc(Cn2cccn2)cn1,12
Cc1ccc(N(CC(=O)Nc2ccc3c(c2)OCCO3)S(C)(=O)=O)cc1,8
CCOC(=O)c1ccc(N2NC(=O)/C(=C/c3ccc(OC(=O)c4ccco4)c(OC)c3)C2=O)cc1,16
CC1Nc2ccccc2C(=O)N1NS(=O)(=O)c1ccccc1 (stereo unspecified),9

# Reprinted from the part before: 5 entries, then new ones.
SMILES,Biofilm kill mix
CC(=O)Nc1cc(Br)ccc1O,11
Clc1ccc(Cn2cccn2)cn1,12
Cc1ccc(N(CC(=O)Nc2ccc3c(c2)OCCO3)S(C)(=O)=O)cc1,8
CCOC(=O)c1ccc(N2NC(=O)/C(=C/c3ccc(OC(=O)c4ccco4)c(OC)c3)C2=O)cc1,16
CC1Nc2ccccc2C(=O)N1NS(=O)(=O)c1ccccc1 (stereo unspecified),9
O=C(Nc1nc2ccccc2s1)Nc1ccc([N+](=O)[O-])cc1Cl,11
CCOc1cc(/C=C(\C#N)C(=O)NCC2CCCO2)ccc1OCC(N)=O (stereo unspecified),25
Clc1ccc(N/N=C/c2ccncc2)cc1Cl,9
CCOC(=O)c1cccc(Nc2ncnc3ccccc23)c1,10
Fc1ccc(/C=N/NC(=S)Nc2cccnc2)cc1F,1
Cc1nc(C(=O)N(C)C)nn1-c1ccc([N+](=O)[O-])cc1,12
N#CCCn1c(O)c(N=NC(=O)CNC(=O)c2cccs2)c2ccccc21,18
COC(=O)C1=C(C)N(C)C(=O)NC1c1ccsc1 (stereo unspecified),11
CNC(=S)N/N=C(\C)c1ccccc1,24
O=C1CCCC2=C1C(c1ccccc1)NC(=S)N2 (stereo unspecified),11
NS(=O)(=O)c1ccc(NC(=O)COC(=O)COc2cccc(C(F)(F)F)c2)cc1,22
O=c1cc(CN2CCCc3ccccc32)nc2sccn12,0

# 7 entries out of the list, sorted by count of non-hydrogen atoms, falling.
SMILES,Biofilm kill mix
CCCNC(=O)c1ccccc1NC(=O)c1ccccc1N(C)S(C)(=O)=O,6
Cc1cc(NC(=O)CN2C(=O)NC(C)(CCc3ccccc3)C2=O)no1 (stereo unspecified),-2
COC(=O)/C(=C/N(C)C)C(=O)N1CCN(c2ccc(Cl)c(Cl)c2)CC1,10
Cc1cc(CNC(=O)Cc2ccccc2)c2ccccc2n1,17
Fc1cccc(/C=N/N=C/c2cccc(F)c2)c1,16
CCNC(=S)N/N=C/c1cc(C)ccc1C,18
NC(=S)N=Nc1c(O)[nH]c2ccccc12,21

# Some of the entries so far, bar-delimited:
compound | Biofilm kill mix
NS(=O)(=O)c1ccc(NC(=O)COC(=O)COc2cccc(C(F)(F)F)c2)cc1 | 22
O=c1cc(CN2CCCc3ccccc32)nc2sccn12 | 0
